Mtb betalactam = beta-lactam sensitization of Mtb H37Rv; M. tuberculosis H37Rv growth with meropenem, percent inhibition; hits of this screen are not shown here; inhibition, % at 25 µM; 0.27% of 330,000 active; AID 434955;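 active = about 74% or more and at least 40 points above the plate without the antibiotic, then above 30% in a dose series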;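 note: growth measured after seven days incubation then overnight dye step; 0% = bacteria only wells and 100% = bacteria with antibiotic; twin plates without the antibiotic show which effects depend on it; some results filed as inactive read as strong as hits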
The depositor's hits bear a star. Only part of the results is shown. The share of hits here may be higher or lower than overall.

SMILES,Mtb betalactam
C[C@@H]1CN([C@@H](C)CO)C(=O)c2cccc(NC(=O)C3CCCCC3)c2O[C@@H]1CN(C)Cc1ccc(Cl)c(Cl)c1,10
CC(OC(=O)c1ccc(Br)o1)C(=O)Nc1ccc2c(c1)OCCO2 (stereo not given),0
CN1CCC(N(C)C(=O)c2ccc(Cl)c(S(=O)(=O)N(C)c3ccc(Cl)cc3)c2)CC1,6
COc1ccc(C(=O)OCCCc2cc3ccccc3c(=O)o2)cc1,2
CC1Oc2ccccc2N(Cc2cccc(F)c2)C1=O (stereo not given),-2
COc1cc(Cl)c(C)cc1NC(=O)CN1C(=O)C2CCCCC2C1=O (stereo not given),1
O=C(CNC(=O)c1cc(Cl)nc2ccccc12)Nc1ccccc1Br,0
C[C@H](CO)N1C[C@H](C)[C@@H](CN(C)S(=O)(=O)c2ccc(F)cc2)Oc2c(NC(=O)Nc3ccc(C(F)(F)F)cc3)cccc2C1=O,4
O=C(NNC(=O)c1ccc(Cl)nc1)c1ccc(Br)cc1,1
Cc1ccc(OCC(=O)N(Cc2nnc(-c3ccccc3Cl)o2)C2CC2)cc1C,-8
O=C1c2ccccc2/C(=C\c2ccc(Br)s2)N1c1ccccc1,-8
N#Cc1ccccc1NCC(=O)N1CCN(S(=O)(=O)c2ccccc2)CC1,2
COc1ccc([C@H]2C(C(=O)O)=C[C@@H](C(C)(C)C)N2S(=O)(=O)c2ccc(C)cc2)cc1OC,3
CCN1CCN(C(=S)NC(=O)c2cccc(Br)c2)CC1,79
CCCc1cc(=O)[nH]c(SC(C)C(=O)N2c3ccccc3CC2C)n1 (stereo not given),-3
CCOc1ccc(C(C)=O)cc1COC(=O)c1ccc2c(c1)NC(=O)CS2,2
CCN(C[C@H]1N[C@@](CC)(C(=O)OC)[C@H]2C(=O)N(C)C(=O)[C@@H]12)S(=O)(=O)c1ccc(F)cc1,-1
Cc1cccc(OCCNC(=O)CCNS(=O)(=O)c2ccc3ccccc3c2)c1,6
O=C(NNC(=O)C1CC1)c1ccc(F)cc1F,-6
COc1ccc(S(=O)(=O)N(C)C[C@H]2Oc3c(NC(=O)NC(C)C)cccc3C(=O)N([C@H](C)CO)C[C@@H]2C)cc1,-8
COc1ccc(OCCCC(=O)Nc2cc(S(=O)(=O)N3CCCCC3)ccc2C)cc1,-9
Cc1cccc(N2CCN(C(=O)C3CC(=O)N(c4ccc5c(c4)OCCO5)C3)CC2C)c1 (stereo not given),1
COc1ccccc1N1CCN(C(=O)c2cc(S(=O)(=O)N3CCCCC3)ccc2C)CC1,2
CC(C)(C)[C@@H]1C=C(C(=O)O)[C@H](c2ccc(Cl)cc2)N1S(=O)(=O)c1ccccc1,-3
CCN(CC(=O)Nc1c(F)cccc1F)C(=O)/C=C/c1ccc(C)cc1,3
Oc1c(CN2CCCC2)cc(COCc2ccccc2)c2cccnc12,16
COc1cc(C(=O)NCC2CCCCC2)ccc1OCc1c(C)noc1C,-6
CC(C)NC(=O)NC(=O)COC(=O)c1ccc(S(=O)(=O)NCc2ccco2)cc1,3
COc1ccccc1NS(=O)(=O)c1ccc(C(=O)NCC(c2cccs2)N2CCOCC2)cc1 (stereo not given),-6
COc1ccc(/C(C)=N/Nc2nccnc2Cl)cc1,2
O=C(COC(=O)c1ccc(S(=O)(=O)N2CCCC2)cc1)Nc1cccc(Br)c1,-2
COc1ccc(CNC(=O)c2ccc(Cl)c(S(=O)(=O)N3CCOCC3)c2)cc1OC,5
CN(CC(=O)Nc1ccc(N2CCOCC2)cc1)C(=O)CSc1ccccc1F,-6
CC(=O)c1ccc(OCC(=O)N(C)CC(=O)Nc2ccc(N3CCOCC3)cc2)cc1,-4
Cc1c(NC(=O)COC(=O)c2cccn2C)c(=O)n(-c2ccccc2)n1C,0
CCN(C(=S)NC(=O)c1ccco1)c1cccc2ccccc12,52
O=C(COc1cccc(F)c1)NNC(=O)Cc1ccc(S(=O)(=O)N2CCOCC2)s1,-2
CCOc1ccc(C(=O)OCC(=O)NCc2ccccc2)cc1OCC,-4
O=C(CNC(=O)c1ccco1)OCc1ccccc1Cl,-5
CC(OC(=O)C1CCCCC1)C(=O)Nc1cccc([N+](=O)[O-])c1 (stereo not given),-2
COc1ccc(CC(=O)Nc2cccc(S(=O)(=O)N3CCCCC3)c2)cc1,-8
COc1ccc(CCNC(=O)c2cccc(S(=O)(=O)N3CCc4ccccc4C3)c2)cc1,-14
O=C(CSc1ccccc1F)Nc1ccc2c(c1)OCO2,-1
Cc1cc(NS(=O)(=O)c2ccc(NC(=O)c3cnc(Cl)c(Cl)c3)cc2)nc(C)n1,0
CCOC(=O)C1=C(COC(=O)c2ccc([N+](=O)[O-])o2)NC(=O)NC1C (stereo not given),-4
CCOC(=O)NN=C1CN(S(=O)(=O)c2ccc(C)cc2)C1,0
CCN(C(=O)C(C)Sc1ccc(S(=O)(=O)N2CCOCC2)cn1)c1ccccc1 (stereo not given),-4
COc1ccc(NC(C)=O)cc1NS(=O)(=O)c1ccc2c(c1)OCCO2,1
COc1ccc(NCC(=O)Nc2cccc(C(F)(F)F)c2)cc1S(=O)(=O)N1CCOCC1,-15
N#Cc1ccccc1S(=O)(=O)N1CCN(C(=O)Cc2coc3cc(O)ccc23)CC1,-9
CC(OC(=O)C1CC1)C(=O)Nc1cccc(S(=O)(=O)N2CCOCC2)c1 (stereo not given),-2
O=C(Nc1nccs1)c1ccc(COc2c(F)c(F)cc(F)c2F)o1,0
COCCn1c(SCC(=O)Nc2cc(C)on2)nc2ccccc2c1=O,8
CCN(C(=O)COC(=O)CCC(=O)c1cccs1)c1ccccc1,2
Cc1cc(NCc2ccccc2)c2ccccc2n1,-3
COc1ccccc1CNC(=O)CN1C(=O)NC2(CCCc3sccc32)C1=O (stereo not given),1
C[C@H]1CN([C@@H](C)CO)C(=O)c2cc(NC(=O)C3CCCCC3)ccc2O[C@H]1CN(C)C(=O)Nc1ccc2c(c1)OCO2,0
Cc1ccc(C(=O)NCCN2CCOCC2)c(Cl)c1,-7
Cc1ccc(NC(=O)C(C)Sc2nnc(C)n2C2CC2)cc1S(=O)(=O)N1CCOCC1 (stereo not given),-1
CCOC(=O)C1=C(COC(=O)CCc2ccc(CC)cc2)NC(=O)NC1C (stereo not given),4

New compounds follow.
SMILES,Mtb betalactam
O=[N+]([O-])c1cc(C(F)(F)F)ccc1Cl,-5
CC(C)N(Cc1ccccc1)C(=O)COC(=O)c1ccc(S(=O)(=O)N2CCOCC2)cc1,1
O=C(COC(=O)Cc1n[nH]c(=O)c2ccccc12)NNC(=O)c1ccc(Cl)cc1,-5
CCCCN(C(=O)Cn1ncc(Cl)c(Cl)c1=O)c1c(N)n(CC(C)C)c(=O)[nH]c1=O,-2
c1cncc(-c2ccc3ncnc(NCc4cccs4)c3c2)c1,3
Cc1nn(-c2ccc(F)cc2)c(Cl)c1C(=O)NCC1CCCO1 (stereo not given),7
CC1CN(S(=O)(=O)c2cccc(C(=O)N3CCC(C(N)=O)CC3)c2)CC(C)O1 (stereo not given),5
CCCN(C(=O)Cc1csc(-c2ccccc2)n1)C1CCS(=O)(=O)C1 (stereo not given),3
O=C(N/N=C/c1ccc(O)c([N+](=O)[O-])c1)C(O)(c1ccccc1)c1ccccc1,-3
C[C@H](NC(=O)c1ccc(Cl)c(S(=O)(=O)N2CCOCC2)c1)c1nc2ccccc2[nH]1,3
COc1ccc(NC(=O)NC2(C(=O)N3CCN4CCCC4C3)CCCCC2)cc1 (stereo not given),-8
CCCCc1ccc(NS(=O)(=O)c2cccc(C(=O)N3CCCN(C)CC3)c2)cc1,-6
CCOC(=O)C1=C(COC(=O)COc2cccc(C)c2C)NC(=O)NC1C (stereo not given),-1
O=C(CC1SC(N2CCOCC2)=NC1=O)Nc1ccccc1Cl (stereo not given),-6
N#C/C=C/C#N,1
COc1ccc2nc(SCC(=O)N(C)CC(=O)Nc3ccc(F)cc3)[nH]c2c1,3
CCOC(=O)C1=C(C)N=c2s/c(=C/c3ccc(OCC(=O)O)cc3)c(=O)n2C1c1ccc(OC)cc1OC (stereo not given),-5
Cn1c2ccccc2c(=O)c2cc(C#CC3=CCCCC3)ccc21,-6
CCCCN1C(=O)C(=O)N(CC(=O)c2cc(C)n(-c3cc(C)on3)c2C)C1=O,0
O=C(c1ccccc1)c1ccccc1,0

Compounds above that contain bromine, in the order listed:
SMILES,Mtb betalactam
CC(OC(=O)c1ccc(Br)o1)C(=O)Nc1ccc2c(c1)OCCO2 (stereo not given),0
O=C(CNC(=O)c1cc(Cl)nc2ccccc12)Nc1ccccc1Br,0
O=C(NNC(=O)c1ccc(Cl)nc1)c1ccc(Br)cc1,1
O=C1c2ccccc2/C(=C\c2ccc(Br)s2)N1c1ccccc1,-8
CCN1CCN(C(=S)NC(=O)c2cccc(Br)c2)CC1,79
O=C(COC(=O)c1ccc(S(=O)(=O)N2CCCC2)cc1)Nc1cccc(Br)c1,-2

(continued)
SMILES,Mtb betalactam
COC(=O)[C@]1(Cc2ccccc2)N[C@H](CN(C)S(=O)(=O)c2ccc(F)cc2)[C@@H]2C(=O)N(Cc3ccccc3)C(=O)[C@@H]21,-9
Cc1noc(C)c1NC(=O)Nc1ccc2c(c1)CC(=O)N([C@@H](C)CO)C[C@@H](C)[C@@H](CN(C)C(=O)Nc1cccc3ccccc13)O2,-1
COC(=O)[C@]1(C)N[C@H](CN(C)C(=O)Nc2ccc(Cl)cc2)[C@@H]2C(=O)N(C)C(=O)[C@@H]21,-4
COc1ccccc1C(=O)NCCC(=O)Nc1ccc(S(=O)(=O)N2CCC(C)CC2)cc1,2
CC[C@]12c3[nH]c4ccccc4c3CCN1C(=O)C(CC(=O)NCc1ccc(OC)c(OC)c1)C[C@@H]2C(=O)N1CCN(C(=O)C2CC2)CC1 (stereo not given in full),-9
CC(C)CC(=O)OC(C)(C)[C@@H]1Cc2c(ccc3ccc(=O)oc23)O1,0
Cc1cccc(CNc2ncnc3ccc(-c4ccc5c(c4)OCO5)cc23)c1,11
Cc1ccc(C(=O)Cn2c(=N)n(CCN3CCOCC3)c3ccccc32)cc1,10
O=C(Nc1cccc(F)c1)C1CCN(S(=O)(=O)c2cccc3nonc23)CC1,-4
CCn1cc(CN2CCCC(C(=O)Nc3ccc(-c4nc5ccccc5[nH]4)cc3)C2)c(C)n1 (stereo not given),-1
C[C@H]1CN([C@@H](C)CO)C(=O)Cc2cc(NC(=O)Cn3cnnn3)ccc2O[C@H]1CN(C)Cc1ccncc1,2
Oc1cc(NCc2ccc(F)cc2)cc2cccnc12,3
CC1CCC(NC(=O)c2cc(S(=O)(=O)N3CCCCC3)ccc2N2CCOCC2)CC1 (stereo not given),-4
COc1ccccc1NC(=O)c1ccc(NC(=O)CN2CCCCC2)cc1,-1
Cc1cc(=O)oc2cc(NC(=O)c3cc(F)ccc3F)ccc12,-2
CN(C(=O)CSc1nnc(-c2c[nH]c3ccccc23)n1C1CC1)C1CCS(=O)(=O)C1 (stereo not given),4
COc1ccccc1OC(C)C(=O)Nc1ccccc1C(=O)NCC1CCCO1 (stereo not given),4
C#CCOCCOCCOCCNc1nc(N2CCN(C(=O)C([C@@H](C)O)n3cc([C@@H](N)CCCCN)nn3)CC2)nc(N2CCN(C(=O)[C@H](CO)n3cc([C@@H](N)C(C)C)nn3)CC2)n1 (stereo not given in full),9
CC[C@]12c3[nH]c4ccccc4c3CCN1C(=O)C(CC(=O)NCc1cccc(C(F)(F)F)c1)C[C@@H]2C(=O)N1CCN(C(=O)c2ccco2)CC1 (stereo not given in full),0
Cc1ccc(CN2C(=O)C(CC(C)C)Nc3ncnc(N4CCN(c5ccccc5)CC4)c32)cc1 (stereo not given),-1
CC1(c2ccc3c(c2)OCCO3)NC(=O)N(CC(=O)Nc2ccccc2SCC#N)C1=O (stereo not given),5
O=C(CNC(=O)c1cccc(Cl)c1)NCC(c1cccs1)N1CCOCC1 (stereo not given),5
CCc1nn2c(=O)cc(COC(=O)c3ccc(SC)cc3OC)nc2s1,-3
CCN(C(=O)COC(=O)C1=COCCO1)c1ccccc1,61
CC(C)(C)C(=O)O[C@H]1CC[C@@]2(C)C(=CC(=O)C3C2CC[C@]2(C)C(=O)CCC32)C1 (stereo not given in full),-2
CCOC(=O)c1cccc(-c2c(-c3ccccc3)ncc3cc(OC)c(OC)cc23)c1,88
COc1ccc(CN(C)CC(=O)N(C)CC(=O)Nc2ccccc2Br)cc1F,-7
O=C(CCNC(=O)c1ccc([N+](=O)[O-])cc1)Nc1ccc(Cl)c(S(=O)(=O)N2CCOCC2)c1,-1
CCOc1ncccc1C(=O)OCC(=O)Nc1ccc(S(=O)(=O)N2CCCC2)cc1,0

At a glance, part of the list above.
SMILES,Mtb betalactam
Cc1ccc(CN2C(=O)C(CC(C)C)Nc3ncnc(N4CCN(c5ccccc5)CC4)c32)cc1 (stereo not given),-1
CC1(c2ccc3c(c2)OCCO3)NC(=O)N(CC(=O)Nc2ccccc2SCC#N)C1=O (stereo not given),5
O=C(CNC(=O)c1cccc(Cl)c1)NCC(c1cccs1)N1CCOCC1 (stereo not given),5
CCc1nn2c(=O)cc(COC(=O)c3ccc(SC)cc3OC)nc2s1,-3
CCN(C(=O)COC(=O)C1=COCCO1)c1ccccc1,61
CC(C)(C)C(=O)O[C@H]1CC[C@@]2(C)C(=CC(=O)C3C2CC[C@]2(C)C(=O)CCC32)C1 (stereo not given in full),-2
CCOC(=O)c1cccc(-c2c(-c3ccccc3)ncc3cc(OC)c(OC)cc23)c1,88

Screens (PubChem)
